# Source: PubChem
# Six1-Eya2 blk: qHTS Assay for Inhibitors of the Six1/Eya2 Interaction; Homeobox protein SIX1 (Homo sapiens) + Protein phosphatase EYA2 (Homo sapiens), …; AlphaScreen GST-Six1/His-Eya2 binding, biochemical; active compounds read low; control for the full effect not named in the record; activity change, % (test concentration not listed); hit rate 0.56% among 360,000; AID 651725, 2012; in the data active = activity change below about -65%; inconclusive = about -30% to -65%; inactive = above about -30%; note: % is set by controls: 0 for no effect and ±100 for the full control effect
# Target sequence (O00167 whole entry, looked up): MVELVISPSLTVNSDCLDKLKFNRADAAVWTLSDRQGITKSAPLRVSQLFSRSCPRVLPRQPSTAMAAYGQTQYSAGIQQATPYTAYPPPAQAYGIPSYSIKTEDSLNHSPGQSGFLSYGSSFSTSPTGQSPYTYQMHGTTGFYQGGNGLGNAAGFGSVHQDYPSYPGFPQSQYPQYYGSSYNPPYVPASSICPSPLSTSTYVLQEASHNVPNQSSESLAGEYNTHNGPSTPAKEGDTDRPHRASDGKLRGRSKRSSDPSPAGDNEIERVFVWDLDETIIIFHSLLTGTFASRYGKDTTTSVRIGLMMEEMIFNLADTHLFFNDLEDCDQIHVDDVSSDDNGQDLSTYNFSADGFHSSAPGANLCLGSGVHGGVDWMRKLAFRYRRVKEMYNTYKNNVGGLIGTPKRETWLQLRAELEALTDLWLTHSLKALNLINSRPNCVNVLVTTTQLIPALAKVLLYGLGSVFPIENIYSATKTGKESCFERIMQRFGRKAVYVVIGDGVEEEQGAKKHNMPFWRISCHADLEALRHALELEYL
# Target sequence (Q15475 whole entry, looked up): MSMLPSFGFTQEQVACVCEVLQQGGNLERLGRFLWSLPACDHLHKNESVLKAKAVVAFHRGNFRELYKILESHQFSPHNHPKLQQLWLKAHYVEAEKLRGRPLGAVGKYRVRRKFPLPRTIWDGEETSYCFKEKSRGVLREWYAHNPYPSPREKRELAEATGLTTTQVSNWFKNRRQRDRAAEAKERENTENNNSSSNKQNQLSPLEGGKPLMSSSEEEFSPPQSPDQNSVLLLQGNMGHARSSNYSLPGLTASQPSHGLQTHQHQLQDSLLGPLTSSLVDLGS
#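 AlphaScreen with GST-Six1 and His-Eya2 (5X mix: 250 nM and 500 nM), glutathione donor and nickel acceptor beads; buffer 50 mM Tris pH 8.0, 300 mM NaCl, 1 mM TCEP; 1 h at 37 C in the dark.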
# D2 agonist: Beta-Arrestin HTS for Positive Allosteric Modulators of the Human D2 Dopamine Receptor: Agonists. activation, % (concentration not given with the values). DiscoveRx PathHunter D2 beta-arrestin, luminescence, 90 min; 100% = 57 uM dopamine signal. AID 624465, 2012. D(2) dopamine receptor (Homo sapiens), P14416. hit rate 0.084% among 360,000; in the data active = activation above about 40%; inconclusive = about 15% to 40%; inactive = below about 15%; note: compound concentration not given in the record; the text of the record calls up to 30% inactive
#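 DiscoveRx PathHunter D2 beta-arrestin cells (2,100/well) attached overnight, then compound-stimulated 90 min at 37 C in HBSS/10 mM HEPES/0.1% Tween-20 buffer; beta-galactosidase complementation read by luminescence after 1 h at ambient temperature. Dopamine 57 uM final (EC100) as control.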
# CtBP-E1A blk: qHTS Assay for Inhibitors of the CtBP/E1A Interaction; hit rate 0.49% among 340,000; AlphaScreen GST-E1A/His-CtBP binding, 1536-well; active compounds read low; control for the full effect not named in the record; activity change, % (no concentration beside the values); AID 651724, 2012; in the data active means activity change below about -65%; inconclusive means about -30% to -65%; inactive means above about -30%; note: % is set by controls: 0 for no effect and ±100 for the full control effect
#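 Homogeneous bead-based format: GST-tagged E1A captured on glutathione donor beads, His-tagged CtBP on nickel acceptor beads; compounds precede bead addition by 2 h at 37 °C.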
# D2 potentiator: Beta-Arrestin HTS for Positive Allosteric Modulators of the Human D2 Dopamine Receptor: Potentiators. DiscoveRx D2 beta-arrestin cells, luminescence, 90 min; 100% = 57 uM dopamine signal. potentiation, % (concentration not given with the values). hit rate 0.23% among 360,000. AID 624464, 2012; active = potentiation of 50% or more; inconclusive = 30% to 50%; inactive = 30% or less;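 note: compound concentration not given in the record; tested on top of an EC20 dose of dopamine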
#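 D2 cells co-treated with compound plus 50 nM dopamine (EC20) for 90 min at 37 deg C to detect potentiation. Beta-arrestin recruitment was read as enzyme-fragment luminescence after 1 h at ambient temperature. Full response was set by 57 uM dopamine.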
# PINK1 modulator: A Quantitative High throughput Screen to Identify Chemical Modulators of PINK1 Expression; hit rate 0.2% among 410,000; Potency, µM (doses to about 76.6 µM), for inactives: top-dose activation (PINK1 increase), hits mostly activators; PINK1 immunofluorescence, high-content cytometry, 24 h; active = well fitted activation curve with a large enough effect; inconclusive = small, poorly fitted or top-dose-only effect; inactive = flat fitted curve, though single readings scatter; cell line not stated here;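 note: potency is the fitted concentration of half-maximal effect; % of control where 0% means no effect; nearly all actives have a fitted effect of over 65% in size; a mitochondrial uncoupler was the plate control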
#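 Compound titrations (5 concentrations, 24 h) on a stable cell line; DMSO and CCCP controls. Endpoint: fixed-cell PINK1 immunofluorescence with mitochondrial, cell and nuclear markers, scanned by microplate cytometer.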
# TRPV1 potentiator: HTS Assay for Compounds that Act as Potentiators of the Vanilloid Receptor 1 | potentiation, % at 8.33 µM | Transient receptor potential cation channel subfamily V member 1 (Homo sapiens), Q8NER1 | AID 540277, 2011 | hit rate 0.02% among 320,000 | TRPV1-expressing cells, Fluo-8 calcium influx, capsaicin EC20 potentiation; host cell line not named in the record; control for the full effect not named in the record; active means potentiation above 80%; inconclusive means 30% to 80%; inactive means below 30%; note: 0% is about no effect
#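 TRPV1-expressing cells were cultured overnight at 35.5C and loaded with Fluo-8 calcium dye for 40 to 90 min at room temperature. After a 10 s baseline, compound was added and calcium influx was read kinetically for 3 min (ex 480/em 520 nm).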
# Sfp inh: qHTS Assay for Inhibitors of Bacillus subtilis Sfp phosphopantetheinyl transferase (PPTase); Biochemical Sfp PPTase activity, qHTS; Potency, µM, inactives show max response, negative = inhibition, hits mostly inhibitors; hit rate 3.5% among 310,000; AID 1490, 2009; active = well fitted inhibition curve with a large enough effect; inconclusive = small, poorly fitted or top-dose-only effect, or another doubt; inactive = no such curve, though single readings can be large or run the other way;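 note: the enzyme is Sfp with the accession as filed and its product quenches rhodamine fluorescence; potency is the fitted concentration of half-maximal effect; 0% = enzyme reaction without inhibitor and -100% = no enzyme wells; top concentration of the series not given in the record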
#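 Compounds were incubated with enzyme (final 15 nM) for 15 min at room temperature before substrate addition started the reaction. Fluorescence at 525 nm excitation, 598 nm emission was recorded immediately and after 30 minutes.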
# Active calls of the source: *; ? = inconclusive; / = not tested or not shown; [ ] = dose if it differs, or a comment.
[1] CCOC(=O)Cc1c(Cl)c2ccccc2[nH]c1=O
[2] COc1ccc([C@H]2CC(=O)C=C(c3cccc(Br)c3)C2)cc1
[3] COc1ccc(-c2cc(=O)[nH]c(=O)[nH]2)cc1
[4] O=C1CCNc2ccc(-c3ccccc3)cc21
[5] O=C(CCCN1C(=O)c2cccc3cccc(c23)C1=O)Nc1ccon1
[6] COP(=O)(CN(Cc1ccccc1)C(=S)Nc1c(C)cccc1C)OC
[7] Cc1ccc(S(=O)(=O)N2CCN(c3nc(C)c4c(c3C#N)CC(C)(C)OC4)CC2)cc1
[8] COc1ccc(CNC(=O)CN2C(=O)CSc3ccc(S(=O)(=O)N4CCCCC4)cc32)cc1
compound no.	1	2	3	4	5	6	7	8
Six1-Eya2 blk	6	0	-15	7	-1	7	-11	-1
D2 agonist	2.2	-2.2	-3.5	6.3	6.1	-2.3	-3.8	-1.4
CtBP-E1A blk	-2	2	-21	24	17	-17	-5	2
D2 potentiator	-8	-3	-3	20	-6	6	0	-8
PINK1 modulator	-1.1%	1.5%	-3.0%	4.9%	-0.3%	0.4%	3.3%	0.4%
TRPV1 potentiator	3	-5	-4	-3	7	-11	11	6
Sfp inh	12%	/	22%	?	22%	17%	-8%	28%

# In another format: entries from further up
No.	Structure	Six1-Eya2 blk	D2 agonist	CtBP-E1A blk	D2 potentiator	PINK1 modulator	TRPV1 potentiator	Sfp inh
3	COc1ccc(-c2cc(=O)[nH]c(=O)[nH]2)cc1	-15	-3.5	-21	-3	-3.0%	-4	22%
4	O=C1CCNc2ccc(-c3ccccc3)cc21	7	6.3	24	20	4.9%	-3	?
5	O=C(CCCN1C(=O)c2cccc3cccc(c23)C1=O)Nc1ccon1	-1	6.1	17	-6	-0.3%	7	22%
6	COP(=O)(CN(Cc1ccccc1)C(=S)Nc1c(C)cccc1C)OC	7	-2.3	-17	6	0.4%	-11	17%

# (cont.)
[9] CC#CCN1C(=O)N[C@@H](c2ccccc2)C(C(=O)OC)=C1C
[10] COc1ccc(C2c3c(oc4ccccc4c3=O)C(=O)N2c2ccccn2)cc1 (stereo not drawn)
[11] CSc1nnc(-c2ccccc2)c(-c2ccccc2)n1
[12] O=C(Nc1ccccc1)c1c2c(nc3ccccc13)CCCC2
[13] COc1ccc2c([N+](=O)[O-])c(Cl)[nH]c2c1
[14] COc1ccc(-n2c(=O)c3ccccc3c3ccccc3c2=O)cc1
[15] CCOC(=O)[C@H]1[C@H]2COc3ccc(Cl)cc3[C@@H]2N2C(=O)CN(C)C(=O)[C@@]12C
[16] O=C(CSc1nc2ccc(Cl)cc2[nH]1)N1CCN(C(=O)c2ccco2)CC1
compound no.	9	10	11	12	13	14	15	16
Six1-Eya2 blk	0	-2	1	9	-9	0	-4	-19
D2 agonist	-3.0	-3.7	-7.2	-2.0	4.1	-1.1	-2.7	2.8
CtBP-E1A blk	3	7	3	4	/	2	3	-6
D2 potentiator	-2	-1	-4	2	8	9	-10	2
PINK1 modulator	-0.5%	3.2%	0.0%	-1.4%	-0.7%	6.5%	-0.6%	2.1%
TRPV1 potentiator	/	0	-12	/	1	?	3	-1
Sfp inh	12%	11%	7%	4%	-12%	13%	/	-18%

[17] O=C(COc1ccccc1F)NNC(=O)c1cc(Br)ccc1Cl
[18] CC(=O)c1ccc(NS(=O)(=O)c2ccc(C(C)(C)C)cc2)cc1
[19] C=CCNC(=S)NCCO
[20] C/C(=N\N1CCN(Cc2ccccc2Cl)CC1)c1ccc(F)cc1
[21] CCCC(=O)Nc1cccc(Oc2nc(C)cc(C)c2C#N)c1
[22] O=C(NCc1ccccc1)c1cc(C2COCCN2C(=O)c2ccccc2)on1 (stereo not drawn)
[23] O=C(NCc1cccs1)c1ccncc1
[24] CCCN(CCC)C(=O)C1c2ccccc2Oc2ccccc21
compound no.	17	18	19	20	21	22	23	24
Six1-Eya2 blk	-4	6	1	-11	6	2	2	8
D2 agonist	2.2	1.1	-2.1	-3.0	-2.1	4.1	0.7	-1.1
CtBP-E1A blk	2	-6	/	-8	-1	0	6	1
D2 potentiator	-3	-6	19	-11	26	1	-1	-18
PINK1 modulator	2.3%	0.0%	0.2%	16%	-2.3%	3.0%	-2.2%	0.5%
TRPV1 potentiator	/	-5	5	11	-26	/	27	1
Sfp inh	/	23%	11%	-1%	7%	/	12%	9%

[25] O=C(NCc1ccccc1)C(c1ccncc1)N(C(=O)c1csnn1)C1CC1 (stereo not drawn)
[26] Cc1ccc(C(=O)Cn2nnc3c(sc4nc5c(c(-c6ccccc6)c43)CCC5)c2=O)cc1
[27] O=C1c2cccnc2C(Nc2ccc(S(=O)(=O)N3CCCCC3)cc2)N1Cc1ccccc1 (stereo not drawn)
[28] O=C(O)c1ccc(COc2c(F)c(F)cc(F)c2F)cc1
[29] CC(C)COc1ccc(CNC(=S)Nc2ccccc2)cc1Cl
[30] CCNC(=O)CC1C(=O)N(c2ccccc2)C(=O)N1Cc1ccc(OC)cc1 (stereo not drawn)
[31] Cn1c(N)c(C(=O)CSc2nnc(-c3ccccc3F)n2N)c(=O)n(C)c1=O
[32] C=CCNc1nc2c(c(=O)n(C)c(=O)n2C)n1Cc1ccc(F)cc1
compound no.	25	26	27	28	29	30	31	32
Six1-Eya2 blk	0	1	1	3	-7	0	-4	-1
D2 agonist	-2.9	-1.2	-0.2	-7.5	5.9	-1.0	-0.4	-1.5
CtBP-E1A blk	-8	1	3	6	6	-4	1	0
D2 potentiator	-7	26	3	-8	7	-11	-5	-5
PINK1 modulator	-1.0%	1.9%	2.4%[38.3 µM]	4.5%[38.3 µM]	?	-0.1%[38.3 µM]	-0.4%	0.9%
TRPV1 potentiator	-2	15	?	3	-7	-3	-18	-4
Sfp inh	19%	-13%	-25%	-56%	21%	19%	-11%	14%

[33] O=C(CNC(=S)N(CCCN1CCOCC1)Cc1cccs1)NCCN1CCOCC1
[34] CCCn1c(NC(=O)C23CC4CC(CC(O)(C4)C2)C3)nc2ccccc21
[35] COc1cccc(-c2cc(C(F)(F)F)n3ncc(C(=O)NCC4CCCO4)c3n2)c1 (stereo not drawn)
[36] O=C(CCNC(=O)c1ccccc1Cl)N/N=C\c1ccc(O)cc1
[37] CCCNC(=O)C(Cc1ccccc1)NS(=O)(=O)c1cccc2nsnc12 (stereo not drawn)
[38] O=C(CCNS(=O)(=O)c1ccc(Br)cc1)NCc1cccs1
[39] Cc1nc(NC(=O)c2ccccc2)sc1-c1csc(NCc2ccccc2)n1
[40] Cc1ccc(C(=O)OCC(=O)Nc2ccc3[nH]c(=O)[nH]c3c2)cc1S(=O)(=O)N1CCOCC1
compound no.	33	34	35	36	37	38	39	40
Six1-Eya2 blk	4	0	-1	-11	5	2	-10	-17
D2 agonist	2.5	-2.9	-4.2	-5.4	-4.3	-1.8	-1.3	-4.6
CtBP-E1A blk	-1	1	4	-11	-8	/	3	-6
D2 potentiator	-7	-3	6	-5	-7	0	-6	13
PINK1 modulator	2.1%	2.2%	0.3%	-0.1%	-1.7%	1.2%	0.4%	-1.1%
TRPV1 potentiator	-1	-15	30	3	10	-34	14	5
Sfp inh	5%	11%	9%	10%	7%	-4%	6%	/

[41] Cc1ccc(S(=O)(=O)Cc2cc(-c3ccc(Cl)cc3)no2)cc1
[42] COc1ccccc1NC(=O)N(C)C[C@@H]1OCc2cn(nn2)CCCC(=O)N([C@@H](C)CO)C[C@H]1C
[43] COC(=O)Cn1c(=NC(=O)c2nc3ccccc3s2)sc2cc(S(N)(=O)=O)ccc21
[44] O=C(NC1CCCCCCC1)c1cc([N+](=O)[O-])ccc1Cl
[45] CC(=O)c1cc(F)c(N2CCN(C(=O)C(C)(C)C)CC2)cc1C
[46] O=C1CC(N2CCN(c3ccccc3Cl)CC2)C(=O)N1c1cccc(F)c1 (stereo not drawn)
[47] CCOC(=O)CSc1ccc(C(=O)NCCCN2CCOCC2)cc1[N+](=O)[O-]
[48] C=CCn1cccc(C(=O)Nc2ccc(OCC)cc2)c1=O
compound no.	41	42	43	44	45	46	47	48
Six1-Eya2 blk	11	1	4	-1	-3	7	5	7
D2 agonist	4.0	-8.1	4.7	8.3	-4.7	-2.5	-3.1	-2.7
CtBP-E1A blk	0	7	19	/	5	2	/	2
D2 potentiator	-18	4	5	-1	-2	-12	-7	-11
PINK1 modulator	0.3%	-0.8%	-1.1%	0.0%	-2.1%	-1.3%	-0.6%	0.2%
TRPV1 potentiator	13	/	18	-4	-5	-5	15	-33
Sfp inh	3%	/	-13%	0%	-10%	2%	13%	7%

[49] CCN(CC)CCN(C(=O)c1cccc(N2C(=O)CCC2=O)c1)c1nc2cc3c(cc2s1)OCO3
[50] Cc1ccc([N+](=O)[O-])cc1NC(=O)Nc1onc(C)c1C
[51] COc1cc(CN(C)C)cc(C=O)c1O
[52] NC(N)=Nc1nc2ccccc2o1
[53] Nn1c(COc2ccccc2F)nnc1SCC(=O)NCC1CCCO1 (stereo not drawn)
[54] O=C(/C=C/c1ccccc1)NC(=S)Nc1cccnc1
[55] C#CCOCCOCCOCCNc1nc(N2CCN(C(=O)CCCCCCCCCCNC(=O)[C@@H](CCSC)n3cc(CCO)nn3)CC2)nc(N2CCN(C(=O)CCCCCCCCCCNC(=O)[C@H]([C@@H](C)CC)n3cc(CCCCN=C(N)N)nn3)CC2)n1
[56] CCC(C)C(NC(=O)OC(C)(C)C)C(=O)NCc1ccco1 (stereo not drawn)
[57] O=C(O)c1ccc(N/N=C/c2ccc3ncccc3c2)cc1
compound no.	49	50	51	52	53	54	55	56	57
Six1-Eya2 blk	-8	-2	0	-11	-5	3	-13	7	0
D2 agonist	-2.7	-10	-3.6	-5.1	-2.8	0.1	2.6	-3.1	2.3
CtBP-E1A blk	-14	/	0	3	3	1	-11	5	-22
D2 potentiator	-8	-56	-10	-5	-7	1	-9	0	11
PINK1 modulator	1.2%	0.5%	3.9%	0.8%	-0.4%	/	-0.2%	2.7%	0.0%
TRPV1 potentiator	15	-1	-4	10	/	4	-21	3	-7
Sfp inh	-6%	10%	1%	-8%	/	-2%	/	8%	-14%
